CDC25B-CDK2 inh – human CDC25B-CDK2/CyclinA binding inhibition; z-score (no concentration beside the values); HTRF CDC25B-CDK2/CyclinA binding, anti-His/anti-Flag; active compounds read high; P30305+P24941; 94,000 compounds, 0.72% hits; AID 1259370;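 also: score is relative to mean and SD of negative controls; strong numbers were not always called active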
HIV TAR-Tat – HIV-1 TAR-Tat binding disruption; 100,000 compounds, 0.6% hits; z-score (concentration not given with the values); HIV-1 TAR RNA, Tat peptide displacement FRET; active compounds read high; AID 1259389;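 also: score is relative to mean and SD of negative controls; some compounds called inactive have numbers as strong as hits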
* = called active by the depositor; nt = not tested or not shown.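 The calls were made as follows: active = z-score from 3 up in half or more of its runs; inactive = the rest.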 Outcome played no part in choosing rows; any-hit rate near 0.9%.

SMILES | CDC25B-CDK2 inh | HIV TAR-Tat
CC(NC(=O)c1ccncc1)C(c1cccs1)N1CCOCC1 (configuration not stated) | -1.4 | nt
Cc1n[nH]c(=S)n(/N=C/c2ccc(Cl)cc2)c1=O | -1.6 | nt
Cc1ccc(C2Nc3ccccc3-n3c(-c4ccccc4)c4c(=O)n(C)c(=O)n(C)c4c32)o1 (configuration not stated) | 0.14 | -0.69
Cc1[nH]c2ccccc2c1C1(O)C(=O)N(Cc2ccccc2)c2ccc(Cl)cc21 (configuration not stated) | 0.11 | 1.8
N#Cc1c(C(F)(F)F)cc(=O)n2c1[nH]c1ccccc12 | -2 | 0.5
CCOc1ccccc1NC1c2ccccc2C(=O)N1c1cccnc1 (configuration not stated) | -1 | -1.3
CSc1ccc(C2c3c(oc4cc(C)cc(C)c4c3=O)C(=O)N2CCO)cc1 (configuration not stated) | -1.1 | 0.42
CC(C)c1ccc(NS(=O)(=O)c2ccc(CN3C(=O)c4cccnc4C3=O)s2)cc1 | nt | -0.93
Cc1ccc(C(CNC(=O)c2cc(=O)c3cc(Br)ccc3o2)N2CCN(C)CC2)o1 (configuration not stated) | 0.94 | -1.6
Cc1cc(NC(C)C)n2nc(C(F)(F)F)c(-c3ccccc3Cl)c2n1 | 2.3 | 1.7
CCc1ccc(S(=O)(=O)c2nnn(-c3ccc(F)c(Cl)c3)c2N)cc1 | -1.2 | 0.25
COc1ccc2c(c1)C(C)=CC(C)(C)N2C(=O)CSc1ccccn1 | -0.71 | 1.4
CCN1CCN(C(c2cccs2)C(C)NC(=O)C(=O)N(CC)CC)CC1 (configuration not stated) | -0.85 | 0.79
COc1cc(C2Nc3c(C)cc(C)cc3-c3cc(C)nn32)ccc1O (configuration not stated) | 0.64 | 2.1
CC(C)Nc1ncnc2scc(-c3ccc(F)cc3)c12 | nt | -1.7
COc1ccc(-c2nc(SCc3ccccc3)n(S(C)(=O)=O)n2)cc1 | 0.24 | 0.83
CCc1c(C)nc2nncn2c1NCc1ccc(Cl)cc1 | -0.71 | 0.37
COC(=O)C1=C(C)NC(C)=C(C(=O)OC)C1c1ccc(C(C)C)cc1 | -1.7 | nt
Cc1ccc(CN2C(=O)N(c3ccc(C)c(Cl)c3)C3CS(=O)(=O)CC32)cc1 (configuration not stated) | nt | 0.42
Cc1cc2c(cc1S(=O)(=O)Nc1cccc(Br)c1)OCC(=O)N2 | nt | 1
N#Cc1c(F)cccc1NC1CCN(Cc2ccccc2)CC1 | -0.35 | nt
CC1CCN(C(=O)C2Sc3ccc(S(=O)(=O)N4CCc5ccccc5C4)cc3NC2=O)CC1 (configuration not stated) | nt | 0.88
O=C(COCc1cc(-c2ccc3c(c2)OCO3)on1)Nc1ccc(Br)cn1 | nt | 0.88
CN(C)CCNC(=O)c1ccc(-n2ccc3ccccc32)s1 | nt | -0.06
CCOc1ccc(NCc2nc3ccccc3n2CCOc2ccccc2)cc1 | -1.1 | nt
Cn1nc(NC(=O)/C=C/c2ccc(OC(F)(F)F)cc2)c2c(F)cccc21 | -0.15 | nt
COc1ccc(-c2nnc(SCc3ccccc3)o2)cc1 | -1.4 | -0.9
COC(=O)c1ccc2nc(N)sc2c1 | 0.5 | 1.9
CC(NC(=O)c1ccco1)C(c1cccs1)N1CCN(c2ccc(F)cc2)CC1 (configuration not stated) | -1.1 | nt
CC(NC(=O)Nc1cn(C)c(=O)c2ccccc12)c1ccccc1 (configuration not stated) | 0.78 | -0.35
Cc1ccc2[nH]c(=S)n(-c3ccc(S(=O)(=O)N4CCCCC4)cc3)c(=O)c2c1 | -2.1 | nt
COc1ccc(Br)cc1/C=C/c1[nH]c(=O)[nH]c(=O)c1[N+](=O)[O-] | -3.1 | 0.84
Fc1ccc(-c2nnc3ccc(N4CCN(Cc5ccccc5)CC4)nn23)cc1 | 0.51 | 0.73
Cc1c(CNC(=O)c2nn3c(c2Cl)NC(c2cccs2)CC3C(F)(F)F)cnn1C (configuration not stated) | -1.3 | -0.88
O=C(CCCc1nc(-c2ccccc2)no1)NC1CCCC1 | -1.5 | 0.64
O=C1C2N=NN(Cc3ccc(F)cc3Cl)C2C(=O)N1c1ccc(Cl)cc1 (configuration not stated) | -2.7 | -0.7
COc1ccc(-n2c(=O)c(C#N)cc3c(=O)n4ccccc4nc32)cc1Cl | 0.01 | -4
CC(=O)C1=C(C)NC(C)=C(C(C)=O)C1c1cccc([N+](=O)[O-])c1 | -1.2 | nt
CCN1CCN(Cc2ccc(NC3=NS(=O)(=O)C(c4ccc(F)cc4)=C3C)cc2)CC1 | nt | 1.2
NC(=O)CSc1nnc(-c2ccc(C(F)(F)F)cn2)s1 | -1.2 | nt
O=C(O)C1(NS(=O)(=O)c2ccc(Cl)cc2)CCCCC1 | -1.8 | 0.14
CCC(C)(C)NS(=O)(=O)c1cc2c(cc1C)N(C(C)=O)CCO2 | nt | 0.98
C=CCOC(=O)C1=C(C)Nc2[nH]c(=O)[nH]c(=O)c2C1c1cc(OC)ccc1OC (configuration not stated) | -3.4 | nt
CCN1C(=O)C2(/C(=C(/O)c3ccc(F)cc3)C(=O)C(=O)N2CCCN2CCOCC2)c2ccccc21 (configuration not stated) | -1.3 | 0.32
Cc1cccc(N2CCN(S(=O)(=O)c3ccc(-c4cc(C)no4)s3)CC2C)c1 (configuration not stated) | nt | 1.2
Cc1ccc(O)c(NC(=O)C2=CC(c3ccc4c(c3)OCO4)=NS(=O)(=O)N2C)c1 | 0.42 | 1.9
CC(C)C(=O)Nc1c(C(=O)N(Cc2ccco2)CC2CCCO2)oc2ccccc12 (configuration not stated) | nt | 0.94
COc1ccc(-n2ccc(=O)c(C(=O)Nc3cc(OC)ccc3OC)n2)cc1 | -1.2 | 1.4
Cc1cccc(N(C)c2nc3ccc(Cl)cc3n3cnnc23)c1 | -1.3 | 1.7
Cc1c(C(=O)c2ccccc2)oc2cc(N)ccc12 | nt | -3.8
Later entries.
SMILES | CDC25B-CDK2 inh | HIV TAR-Tat
Cc1ccc(S(=O)(=O)c2cnc3ccc(F)cc3c2N2CCN(C)CC2)cc1C | 0.47 | -0.2
CN1C(=O)Cc2cc(NC(=O)C(C)(C)C)ccc21 | nt | 0.35
COC(=O)C(C)n1nnc2sc(-c3ccccc3)cc2c1=O (configuration not stated) | -2.4 | -0.02
CCc1ccc(S(=O)(=O)N2CCN(c3cc(-c4ccccc4)ncn3)CC2)cc1 | nt | 0.48
c1ccc(CN(Cc2ccccc2)c2ncnc3nc[nH]c23)cc1 | 1.4 | -0.18
Cc1cc(C2CC(=O)Nc3c2c(C)nn3-c2nc3ccccc3[nH]2)c(C)s1 (configuration not stated) | nt | 2.9
CCOc1nc(-c2ccccc2)ccc1-c1noc(C)n1 | -0.5 | -0.08
C=CCOc1cccc(C2c3c(oc4ccc(F)cc4c3=O)C(=O)N2CCCN2CCOCC2)c1 (configuration not stated) | -1 | 0.62
CCC(Sc1nc2ncccc2[nH]1)C(=O)N1CCCCC1 (configuration not stated) | nt | 0.97
CCC12CN3CC(CC)(CN(C1)C3c1c[nH]c3ccccc13)C2=O (configuration not stated) | -3.8 | nt

14 compounds already listed, sorted by formula weight, smallest number first.
SMILES | CDC25B-CDK2 inh | HIV TAR-Tat
CCOc1nc(-c2ccccc2)ccc1-c1noc(C)n1 | -0.5 | -0.08
CC(C)Nc1ncnc2scc(-c3ccc(F)cc3)c12 | nt | -1.7
COc1ccc(-c2nnc(SCc3ccccc3)o2)cc1 | -1.4 | -0.9
CN(C)CCNC(=O)c1ccc(-n2ccc3ccccc32)s1 | nt | -0.06
CC(=O)C1=C(C)NC(C)=C(C(C)=O)C1c1cccc([N+](=O)[O-])c1 | -1.2 | nt
NC(=O)CSc1nnc(-c2ccc(C(F)(F)F)cn2)s1 | -1.2 | nt
COc1cc(C2Nc3c(C)cc(C)cc3-c3cc(C)nn32)ccc1O (configuration not stated) | 0.64 | 2.1
COC(=O)C1=C(C)NC(C)=C(C(=O)OC)C1c1ccc(C(C)C)cc1 | -1.7 | nt
CSc1ccc(C2c3c(oc4cc(C)cc(C)c4c3=O)C(=O)N2CCO)cc1 (configuration not stated) | -1.1 | 0.42
C=CCOC(=O)C1=C(C)Nc2[nH]c(=O)[nH]c(=O)c2C1c1cc(OC)ccc1OC (configuration not stated) | -3.4 | nt
CC(C)C(=O)Nc1c(C(=O)N(Cc2ccco2)CC2CCCO2)oc2ccccc12 (configuration not stated) | nt | 0.94
Cc1cccc(N2CCN(S(=O)(=O)c3ccc(-c4cc(C)no4)s3)CC2C)c1 (configuration not stated) | nt | 1.2
Cc1ccc(C2Nc3ccccc3-n3c(-c4ccccc4)c4c(=O)n(C)c(=O)n(C)c4c32)o1 (configuration not stated) | 0.14 | -0.69
C=CCOc1cccc(C2c3c(oc4ccc(F)cc4c3=O)C(=O)N2CCCN2CCOCC2)c1 (configuration not stated) | -1 | 0.62

(more compounds)
SMILES | CDC25B-CDK2 inh | HIV TAR-Tat
O=C(c1ccc(Cl)cc1)N1CCN(C2=NS(=O)(=O)c3ccccc32)CC1 | -0.89 | nt
CC1(C)C(=O)Nc2ccc(S(=O)(=O)NCCN3CCN(c4ccccc4F)CC3)cc21 | nt | -0.02
CCOC(=O)N1CCc2c(sc3c2C(=O)NC(c2cc(Br)ccc2OC)N3)C1 (configuration not stated) | 1.2 | -0.56
O=C(NC1COc2ccccc2C1)N1CCc2ccccc21 (configuration not stated) | nt | 1.6
COc1ccc(C(=O)C2Oc3ccccc3C3CC(c4ccccc4)=NN23)cc1 (configuration not stated) | -0.11 | nt
CC(=O)Nc1ccc(Oc2cc(C#N)c(C#N)cc2Oc2ccc(NC(C)=O)cc2)cc1 | -0.68 | nt
CC(C)OCCCNS(=O)(=O)c1ccc2c(c1)CCCC(=O)N2 | nt | 0.67
Cc1nn(CC/C(N)=N/OC(=O)c2ccccc2)c(C)c1Oc1ccc(Cl)cc1 | -1.1 | nt
CN(C)S(=O)(=O)c1ccc2c(c1)cc(C(=O)O)n2Cc1ccncc1 | -1.9 | 0.65
CCCn1c2ccccc2c2cnn(CC(=O)N3CCCc4ccccc43)c(=O)c21 | nt | 0.77
O=C(O)CN1CC(=O)Oc2ccccc21 | -0.55 | 1.9
Cc1cccc2nc(-c3ccc(N4CCOCC4)cc3)c(Nc3ccc4c(c3)OCO4)n12 | -0.82 | nt
COc1cccc(-n2c(=S)sc3c(=O)[nH]c(SCC(=O)N4CCCC4)nc32)c1 | -0.53 | 2.9
O=C(Cn1cnc(S(=O)(=O)N2CCCC2)c1)Nc1cccc2c1CCCC2 | nt | 0.6
O=S(=O)(c1cc(Br)c(Cl)s1)N1CCSCC1 | -1.4 | nt
COC(=O)c1c(NC(=O)c2cc3ccccc3o2)sc2c1CCC2 | -1 | 0.13
COc1ccc(NC(=O)CSc2nncn3c2cc2oc(C)cc23)cc1OC | nt | 2
COc1cc(-c2nc3cc(C)ccc3o2)cc(OC)c1OC | -0.29 | nt
Cc1nnc(NC(N)=S)s1 | 0.52 | nt
O=C1c2cccnc2C(=O)N1Cc1ccc(S(=O)(=O)Nc2cccc(-c3ccno3)c2)s1 | nt | -0.8
CCSc1nnc(NC(=O)c2cc3ccccc3c(=O)o2)s1 | 7 | 2.1
O=C(NCc1cccs1)C1CCN(S(=O)(=O)c2ccc3[nH]ccc3c2)CC1 | nt | 0.8
Cc1nnc(SCc2cc(=O)n3nc(-c4ccco4)sc3n2)s1 | 2.1 | 1.7
CCOC(=O)c1ccc(-n2cc3c(c2-c2ccc(Br)cc2)c(=O)n(C)c(=O)n3C)cc1 | -1.1 | 0.12
CCCCSC1=C(C#N)C(=O)NC(c2ccccc2O)S1 (configuration not stated) | -1.1 | -0.37
C=CCOC(=O)C1=C(C)Nc2nc(SCC=C)[nH]c(=O)c2C1c1ccc(F)cc1 (configuration not stated) | -1.7 | 1.3
Cn1cc(NC(=O)N2CCN(c3ccccc3F)CC2)c2ccccc2c1=O | nt | 0.03
COC(=O)C1=C(C)NC2=C(C(=O)c3ccccc32)C1c1ccc(O)cc1 (configuration not stated) | 0.61 | -0.29
COc1ccc(Nc2nc3ccc(C)cc3n3cnnc23)cc1 | -2 | 0.78
c1ccc(-n2nnnc2SCCCNCc2ccco2)cc1 | -0.14 | 1.8
COc1ccc(NS(=O)(=O)c2cc3c4c(c2)CCC(=O)N4CCC3)cc1OC | nt | 2.5
O=C(NCc1ccccn1)C1C2C=CC3(CN(Cc4ccccc4Cl)C(=O)C13)O2 (configuration not stated) | -0.02 | 0.06
Cc1c(C)n(Cc2ccncc2)c2ncn3nc(-c4ccc(C(C)(C)C)cc4)nc3c12 | -0.99 | 0.6
Cn1c2c(c(=O)n(C)c1=O)CN(C1CCCCC1)CN2 | -0.58 | 1.8
O=C1c2ccccc2-c2onc3c(N4CCOCC4)cc(N4CCOCC4)c1c23 | -0.66 | 0.31
COc1ccc(NS(=O)(=O)c2cc3c(cc2Cl)n(C)c(=O)n3C)c(OC)c1 | nt | 0.91
CCOc1ccc(-c2nc(CN)c(C)o2)cc1 | nt | 1.2
CC1CCCC(NC(=O)Cn2cc3c(n2)CCCCCC3)C1C (configuration not stated) | -1.2 | 0.51
Cc1nc(-c2csc(S(=O)(=O)NCc3cccs3)c2)no1 | nt | 1.2
Cn1c(=O)c2c(-c3ccccc3Br)n(CC(N)=O)cc2n(C)c1=O | -1.8 | 2.3
Cc1nn2c(=O)cc(COC(=O)C(C)(C)C)nc2s1 | nt | 0.64
O=C(O)COc1ccc2c(c1)oc(=O)c1ccccc12 | -0.62 | 1.1
Cc1ccc(C(=O)O)c2c1N[C@H](c1cccc(Cl)c1)C1CC=CC21 (some centres not stated) | -1.2 | 2.2
Cc1ncc(-c2ccc(S(=O)(=O)N3CCC(Cc4ccccc4)CC3)cc2)o1 | nt | 1.1
O=C(c1cc(-c2ccccc2F)no1)N1CCCC1c1cccc(F)c1 (configuration not stated) | 0.91 | 0.22
C=CCN1C(=O)/C(=C\c2ccc(OCc3ccc(COc4ccc(C=O)cc4OC)cc3)c(OC)c2)SC1=S | -5.7 | nt
NNC(=O)c1ccc(F)c(F)c1 | -1.9 | nt

Screening results deposited in PubChem by Center for Chemical Genomics, University of Michigan.
